Assay outcomes: PubChem, National Center for Advancing Translational Sciences (NCATS)
PINK1 expr mod – PINK1 expression modulation; PINK1 immunofluorescence, high-content cytometry, 24 h; Potency, µM (titrated, usually from 76.6 µM), without a hit: top-dose activation (PINK1 increase), actives largely listed as activators; 410,000 tested, 0.2% active; AID 624263; active = well fitted activation curve with a large enough effect; inconclusive = small, poorly fitted or top-dose-only effect; inactive = flat fitted curve, though single readings scatter; cell line not stated here;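 further: % of control where 0% means no effect; nearly all actives have a fitted effect of over 65% in size; a mitochondrial uncoupler was the plate control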
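A stable cell line was treated with compounds at 5 concentrations for 24 hours, with CCCP as control. PINK1 levels and mitochondrial localization were measured by immunofluorescence with mitochondrial, cell and nuclear markers after fixation, read by laser-scanning cytometry.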
ClpP mod – qHTS Assay for Activators of ClpP; 340,000 tested, 1.9% active; Potency, µM (top dose mostly 57.5 µM), for inactives: at the top dose activity change, negative = active; purified B. subtilis ClpP, FRET peptide cleavage, 20 min; active = well fitted falling curve with a large enough effect; inconclusive = small, poorly fitted or top-dose-only effect; inactive = no such curve, though single readings can be large or run the other way; further: the source files actives as falling curves though it sought activators and does not explain the sign; nearly all actives have a fitted effect of over 65% in size; many hits overshoot -100%
Target sequence (P80244 whole entry, looked up): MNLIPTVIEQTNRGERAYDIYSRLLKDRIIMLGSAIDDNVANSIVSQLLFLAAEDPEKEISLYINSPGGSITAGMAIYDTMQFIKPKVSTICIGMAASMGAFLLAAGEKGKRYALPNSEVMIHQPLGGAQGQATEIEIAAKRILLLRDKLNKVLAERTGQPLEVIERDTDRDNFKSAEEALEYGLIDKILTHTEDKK
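Buffer: 100 mM Tris/HCl pH8, 100 mM KCl, 0.05% low protease BSA, 2.5% glycerol, 0.01% Tween-20. ClpP 10 microg/mL final; 20 min RT; delta FRET normalized to ADEP and DMSO controls.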
The depositor's hits bear a star; ? = inconclusive. Potency means the concentration at half of the fitted maximal effect. Only part of the results is shown, so the mix of outcomes need not match the whole.

| SMILES | PINK1 expr mod | ClpP mod |
| --- | --- | --- |
| Cc1ccc(CSCc2ccc(C(=O)NCCc3ccc(Cl)cc3)o2)cc1 | ? | -3.8% |
| COc1ccccc1-c1cc(C(F)(F)F)nc(S(=O)(=O)CCCC(=O)Nc2ccccc2F)n1 | 4.6% | 4.4% |
| CCOC(=O)C(Cc1c[nH]c2ccccc12)NC(=O)COc1ccc(Cl)c(C)c1 (stereo not given) | -0.5% | -1.6% |
| CCOc1ccc(CCNC(=O)c2sc3nc4n(c(=O)c3c2C)CCCC4)cc1OCC | -1.1% | 1.7% |
| Cc1ccc(NC(=O)CSc2nnc(COc3ccc(Cl)cc3)o2)c(C)c1 | 2.6% | 0.0% |
| O=C(Nc1cc(-c2nc3ccccc3o2)ccc1Cl)c1cccc2c(Cl)cccc12 | -0.7% | -19% |
| CCOC(=O)Cn1c(-c2cccs2)cc2cc(Cl)ccc21 | -0.5% | 22µM* |
| Cc1cc(C)c2nc(N(Cc3cccnc3)C(=O)c3cccs3)sc2c1 | -1.0% | -3.0% |
| CC1(C(=O)Nc2cccc(C(F)(F)F)c2)Cc2ccccc2C(=O)O1 (stereo not given) | 4.8% | -0.5% |
| Cc1ccccc1Nc1c(-c2c[nH]c3ccccc23)nc2cccc(C)n12 | 0.3% | 3.6% |
| CCOc1ccc(NC(=O)c2cc(S(=O)(=O)N3CCOCC3)ccc2F)cc1 | 0.5% | -2.2% |
| Cc1ccccc1Nc1c2c(nc3nncn13)CCC2 | 0.4% | -0.6% |
| COc1ccc(C)cc1S(=O)(=O)NCC(c1ccc(N(C)C)cc1)N1CCc2ccccc21 (stereo not given) | -0.1% | ? |
| COC(=O)c1ccccc1NC(=O)CCc1c(C)nc2cc(-c3ccc(Cl)cc3)nn2c1C | 1.2% | ? |
| COc1cccc(CNC(=O)c2ccc3c(c2)nc2n3CCCCC2)c1OC | 1.1% | -23% |
| Cc1ccc(Nc2nc(Nc3ccc(Cl)cc3)nc(N3CCOCC3)n2)cc1 | -0.1% | 7.2% |
| CCOc1ccccc1-n1nnc(-c2nc(-c3ccccc3C)no2)c1C | 0.2% | 0.7% |
| CN(C)C(=O)c1c(NC(=O)c2ccccc2F)sc2c1CCCC2 | 1.3% | -1.3% |
| CCN(CC)C(=O)c1ccc(Nc2nnc(-c3ccc(C)c(S(=O)(=O)NC)c3)c3ccccc23)cc1 | 4.5% | -20% |
| CCOc1ccc(NC(=O)CSC2=Nc3ccccc3C3=NC(CCC(=O)NCc4cccs4)C(=O)N23)cc1 (stereo not given) | 1.4% | -3.2% |
| CCCCc1ccc(NC(=O)c2cc3c(=O)n4ccccc4nc3s2)cc1 | 3.9% | -16% |
| CN(CCc1ccccc1)C(c1cc2ccccc2o1)c1nnnn1C(C)(C)C (stereo not given) | 0.7% | -1.4% |
| Cc1coc2c1c(C)cc1oc(=O)c(CC(=O)NCc3ccc(Cl)cc3)c(C)c12 | 0.2% | 4.2% |
| O=C(NCc1ccccc1)C1c2ccccc2OCC(=O)N1Cc1ccc2c(c1)OCO2 (stereo not given) | -0.5% | 1.1% |
| O=C(Nc1ccccc1)N(Cc1ccc(F)cc1)c1ccccn1 | 1.3% | 1.5% |
| COc1ccc(CCNC(=O)c2ccc(Cn3c(=O)c4ccccc4n(Cc4ccccc4Cl)c3=O)cc2)cc1OC | -1.0% | -0.3% |
| Cc1ccsc1CN(C(=O)c1oc2cc(Br)ccc2c1C)C1CCS(=O)(=O)C1 (stereo not given) | 0.1% | -1.2% |
| O=S(=O)(NCc1ccccc1Cl)c1ccc(-c2cnc(C3CC3)o2)cc1 | 3.2% | 4.6% |
| CC(C)c1ccc(CN(Cc2ccco2)c2cnc(S(C)(=O)=O)nc2C(=O)Nc2ccccc2)cc1 | 0.4% | -5.2% |
| COc1ccc(-n2c(-c3ccc(Cl)cc3)cc3c2CC(C)(C)CC3=O)c(OC)c1 | 1.6% | ? |
| O=C1NC[C@H](CCCCN2C[C@H](Cc3ccccc3)N(CCC3CCCCC3)C(=O)C2=O)N(Cc2ccccc2)C1=O | 7.2% | 1.5% |
| COc1ccc(-c2nc3c(c(SCc4ccc(Br)cc4)n2)Cc2c(CO)cnc(C)c2O3)cc1 | 0.5% | -4.9% |
| C(=C\c1ccnc2ccccc12)/c1ccccc1 | -0.6% | ? |
| N#Cc1ccccc1NC(=O)C(=O)NCC(c1cccnc1)N1CCN(c2ccccc2)CC1 (stereo not given) | -0.1% | -1.1% |
| Cc1ccc(S(=O)(=O)N2CCN(c3nc(-c4cccs4)nc4ncccc34)CC2)cc1 | 0.0% | ? |
| O=C(C[N+]1(CCO)CCOCC1)c1ccc(F)c2ccccc12 | -0.8% | 0.2% |
| COc1ccc(NC(=O)Cn2cc(C(=O)c3cccs3)c3ccccc32)cc1 | -2.0% | -2.6% |
| CCC(Oc1ccccc1)C(=O)N1CCN(Cc2cc(=O)n3nc(-c4cccc(C)c4)sc3n2)CC1 (stereo not given) | 1.1% | -4.9% |
| O=c1c2oc3ccccc3c2n(Cc2cccc(Cl)c2)c(=O)n1Cc1ccc2c(c1)OCO2 | 0.5% | -27% |
| CCOc1ccccc1NC(=O)c1sc2nc(-c3ccc(OC)cc3)ccc2c1N | 0.8% | -20% |

The results go on:
Order of results – PINK1 expr mod, ClpP mod
- COc1ccccc1CN1CCC(CNC(=O)c2cnn(-c3ccc(C)c(C)c3)c2C2CCN(C(=O)OC(C)(C)C)CC2)CC1
    -0.9%, -1.4%
- CN(C)c1cccc(C(=O)N2CCC(c3c[nH]c4ccccc34)(c3c[nH]c4ccccc34)CC2)c1
    -0.4%, 4.6%
- COc1ccc(-n2c(=O)c3ccccc3n(Cc3ccc(F)cc3Cl)c2=O)cc1OC
    2.5%, -2.4%
- O=C(CSc1nncn2c1cc1occc12)Nc1ccccc1C(F)(F)F
    -0.2%, -8.3%
- COc1cccc(CNC(=O)Cn2c(=O)oc3cc(S(=O)(=O)N4CCCC4)ccc32)c1
    0.2%, -1.2%
- COC(=O)[C@]12CCCCC=C1N(Cc1cccc3ccccc13)C(=O)[C@H](CC(=O)NCC1CCCCC1)C2
    3.2%, -0.1%
- COc1ccccc1NC(=O)N1CCN(Cc2nc3ccc(C)cc3o2)CC1
    2.0%, -0.2%
- Cn1cc(S(=O)(=O)c2ccccc2)c(=O)c2cc(F)c(N3CCN(c4ccc(F)cc4)CC3)cc21
    1.8%, -9.5%
- Cc1ccc(C(=O)NCC(c2cccnc2)N2CCc3ccccc32)cc1C (stereo not given)
    -0.5%, -1.6%
- CCOc1ccc2ncc3c(-c4ccc(C)cc4)nn(-c4cccc(F)c4)c3c2c1
    1.0%, -14%
- CC(C)C(=O)Nc1ccc2nc(SCC(=O)N3CCCC3)sc2c1
    1.7%, -2.3%
- COc1ccc(-c2nc(SCC(=O)Nc3ccc4c(c3)OCCO4)c(-c3ccc(F)cc3)[nH]2)cc1
    7.0%, -4.9%
- COC(=O)c1sc2cccc(F)c2c1S(=O)(=O)N1CCN(c2cccc(OC)c2)CC1
    7.5%, -0.9%
- CCNC(=O)CC1C(=O)N(c2cccc(OC)c2)C(=O)N1Cc1ccc(OC)c(OC)c1 (stereo not given)
    -0.5%, -1.3%
- Cc1c(CCC(=O)NCCc2ccccc2)c(=O)oc2c(C)c(O)ccc12
    0.0%, 4.4%
- Cc1ccc2oc(C(=O)Nc3sc4c(c3C(=O)NCc3cccnc3)CCCC4)cc(=O)c2c1
    2.7%, 0.7%
- CSc1ccc(C2c3c(-c4ccccc4O)n[nH]c3C(=O)N2Cc2ccncc2)cc1 (stereo not given)
    6.8%, 0.9%
- CC(C)(C)C1CCN2CCC[C@](c3ccccc3)(C1)C2OCCCO (stereo not given in full)
    0.8%, 4.0%
- CC(C)(C)OC(=O)N1CCC(c2nnc(SCc3ccccc3F)o2)CC1
    -1.7%, -1.1%
- COc1ccc(NC(=O)COCc2cc(-c3ccco3)on2)cc1Cl
    -0.9%, -1.4%
- Cc1cccc(NC(=O)CN2C(=O)COc3ccc(S(=O)(=O)N4CCC(C)CC4)cc32)c1C
    1.9%, -1.0%
- COc1cccc(CN2C(=O)C3(SCC(=O)N3c3ccc(C)c(Cl)c3)c3ccccc32)c1 (stereo not given)
    -0.8%, 1.0%
- CCCCCN1C(C(=O)c2ccccc2)=C(NC(=O)c2ccccc2Cl)c2ccccc2S1(=O)=O
    6.5%, 1.2%
- CCc1nc(-c2cc(S(=O)(=O)N3CCN(c4ccccc4)CC3)ccc2OC)no1
    -0.1%, -10%
- Cc1cc(C)c(NC(=O)CSc2ncc(S(=O)(=O)c3ccc(C(C)(C)C)cc3)c(=O)[nH]2)c(C)c1
    0.0%, -4.8%
- COc1ccc(Cn2c(=O)c3cccnc3n(Cc3cccc(F)c3)c2=O)cc1
    2.0%, ?
- COc1ccc2c(c1)c1c(c(=O)n(-c3cccc(C)c3)c(=O)n1CC(=O)NCc1ccc(C)cc1)n2C
    3.5%, -12%
- CC(C)c1nc2ccc(C(=O)NCCCN3CCN(c4cccc(Cl)c4)CC3)cc2o1
    0.3%, -1.1%
- O=C1c2ccccc2C(=O)N1c1ccccn1
    3.1%, -1.6%
- Cc1ccc(S(=O)(=O)N2CCN(Cc3ccccc3Cl)CC2)cc1
    1.7%, -1.0%
- CCOc1ccc(NC(=O)Cn2c(=O)n(Cc3ccco3)c(=O)c3oc4ccccc4c32)cc1
    0.9%, -25%
- Cc1ccc(NC(=O)Cn2c(=O)nc(-c3ccccc3F)c3cc(Cl)ccc32)c(Br)c1
    -0.6%, ?
- CCOc1ccc2c(c1)c(=O)c(C(=O)c1ccc3c(c1)OCO3)cn2Cc1cccc(F)c1
    -1.9%, -1.6%
- Cc1cc(C)n2c(Nc3ccc4c(c3)OCCO4)c(-c3ccccn3)nc2n1
    2.6%, -2.2%
- Cc1ccc(OCC(=O)Nc2nonc2-c2ccc(Br)cc2)cc1C
    2.9%, -1.2%
- Cc1cc2c(cc1S(=O)(=O)Nc1cccc(Cl)c1C)OCCN2C
    1.7%, -2.7%
- N#Cc1ccccc1NC(=O)C(=O)NCC(c1ccc2c(c1)OCO2)N1CCOCC1 (stereo not given)
    0.8%, -0.4%
- COc1cccc(N2CCN(C(=O)c3cc4c(=O)n(Cc5cccnc5)ccc4nc3C)CC2)c1
    0.9%, -29%
- O=C(NCCc1ccccc1)C(=O)NCC(c1ccco1)S(=O)(=O)c1ccccc1 (stereo not given)
    -0.7%, -1.1%
- COc1ccc(C(=O)Nc2nnc(S(=O)(=O)N3CCN(c4ccc(F)cc4)CC3)s2)cc1
    0.4%, -5.8%
- Cc1cc(C)c2oc(C(=O)Nc3sc4c(c3C(=O)NCc3ccco3)CCC4)cc(=O)c2c1
    15%, -0.7%
- CCOC(=O)C1CCC(CN(Cc2c(Cl)cccc2Cl)S(=O)(=O)c2ccc(Cl)cc2)CC1 (stereo not given)
    -0.4%, -1.5%
- CCOc1ccc(N(CC)S(=O)(=O)N2CCCC(C(=O)NCc3ccc(Cl)cc3)C2)cc1 (stereo not given)
    -1.4%, -2.7%
- CCN(c1ccccc1C)S(=O)(=O)c1nnc(NC(=O)c2ccc(OC)c(OC)c2)s1
    0.2%, -28%
- CC1(C)O[C@H]2[C@@H](O1)[C@@H](C(=O)Nc1cc(F)ccc1F)O[C@@H]1OC(C)(C)O[C@@H]12
    -0.7%, -1.6%
- CCc1ccc(S(=O)(=O)c2cn(CC)c3cc(N4CCCCC4)c(F)cc3c2=O)cc1
    0.4%, 25µM*
- C[C@H](c1ccccc1)N1C[C@H](COCc2ccccc2)Oc2cc(N3CCC[C@H]3CO)ccc2S1(=O)=O
    5.0%, -29%
- CCCN(CCC)C(=O)CSc1c2c(nc3ccc(Cl)cc13)CCCC2
    1.4%, 0.4%
- CCC1CN(C(=O)Nc2cc(Cl)c(OC)cc2OC)c2ccccc2O1 (stereo not given)
    0.3%, 1.2%
- O=C(C1CCCN(S(=O)(=O)c2cccc3nsnc23)C1)N1CCN(c2ccccc2Cl)CC1 (stereo not given)
    2.5%, 0.0%
- Cc1cccc(N2CCN(c3nc4ccc(C(=O)c5ccccc5)cc4n4cnnc34)CC2C)c1 (stereo not given)
    -0.4%, -1.9%
- COC(=O)c1sc(NC(=O)/C=C/c2ccc(OC)c(OC)c2)c(C(=O)OC)c1C
    1.9%, -11%
- COc1cc(OC)cc(C(=O)Nc2cc3c(cc2N2CCCCC2)n(C)c(=O)n3C)c1
    0.1%, -3.7%
- CCc1ccccc1NC(=O)CN1CCCN(Cc2cc(C)ccc2C)S1(=O)=O
    1.6%, 1.4%
- CCN1CCN(c2oc(/C=C/c3ccc(OC)c(OC)c3)nc2C#N)CC1
    3.5%, 4.7%

Some of these compounds in order of the PINK1 expr mod value, ascending.
SMILES	PINK1 expr mod
CCOc1ccc(NC(=O)Cn2c(=O)n(Cc3ccco3)c(=O)c3oc4ccccc4c32)cc1	0.9%
CCCN(CCC)C(=O)CSc1c2c(nc3ccc(Cl)cc13)CCCC2	1.4%
COC(=O)c1sc(NC(=O)/C=C/c2ccc(OC)c(OC)c2)c(C(=O)OC)c1C	1.9%
O=C(C1CCCN(S(=O)(=O)c2cccc3nsnc23)C1)N1CCN(c2ccccc2Cl)CC1 (stereo not given)	2.5%

Entries of single compounds from above. Values in the order: PINK1 expr mod	ClpP mod
CCc1ccc(S(=O)(=O)c2cn(CC)c3cc(N4CCCCC4)c(F)cc3c2=O)cc1 as listed: 0.4%	25µM*
O=C(NCCc1ccccc1)C(=O)NCC(c1ccco1)S(=O)(=O)c1ccccc1 (stereo not given) as listed: -0.7%	-1.1%
